# Ran importin – inhibitors of Ran–importin-beta complex formation, primary screen, biochemical, CFP-Ran/YFP-importin-beta FRET, RCC1, cell-free (AID 434961). hit rate 0.2% among 7,700. inhibition, %. CFP-Ran/YFP-importin-beta FRET, cell-free; stronger effect = higher value;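 active means more than half of the replicate wells above 15% inhibition; inconclusive means exactly half above it; inactive means fewer than half above it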;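 further: 0% = DMSO wells and 100% inhibition = RanGDP control wells on each plate; stock of unstated strength diluted about 400-fold; mean of two wells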
# Numbers without * were called inactive; ? = inconclusive. An excerpt (hit frequency here may not be typical).
Structure	Ran importin
C[C@@H]1CN([C@@H](C)CO)C(=O)Cc2cc(NC(=O)C3CC3)ccc2O[C@@H]1CN(C)C(=O)Nc1ccc(C(F)(F)F)cc1	-1.3
CC(C)NC(=O)N(C)C[C@H]1Oc2ccc(NC(=O)CCN3CCOCC3)cc2C(=O)N([C@H](C)CO)C[C@@H]1C	-1.9
C[C@@H]1CCCCO[C@@H](CN(C)C(=O)Nc2ccccc2)[C@H](C)CN([C@@H](C)CO)C(=O)c2cc(NC(=O)Cc3ccccc3)ccc2O1	2.8
COc1ccc(NC(=O)Nc2ccc3c(c2)C(=O)N([C@@H](C)CO)C[C@H](C)[C@@H](CN(C)Cc2ccc(C(=O)O)cc2)O3)cc1	2.1
C[C@H]1CN([C@@H](C)CO)C(=O)Cc2cc(NC(=O)c3ccncc3)ccc2O[C@H]1CN(C)C(=O)NC1CCCCC1	0.8
CC(C)NC(=O)N(C)C[C@H]1OCCCC[C@H](C)Oc2ccc(NS(C)(=O)=O)cc2C(=O)N([C@@H](C)CO)C[C@@H]1C	-5.8
C[C@H]1CN([C@@H](C)CO)C(=O)Cc2cc(NC(=O)c3ccncc3)ccc2O[C@@H]1CN(C)C(=O)Nc1ccccc1	5.5
C[C@H](CO)N1C[C@H](C)[C@H](CN(C)S(=O)(=O)c2ccc(Cl)cc2)Oc2c(NS(=O)(=O)c3cccs3)cccc2C1=O	-0.5
C[C@@H]1CCCCO[C@H](CN(C)C(=O)c2ccncc2)[C@H](C)CN([C@H](C)CO)C(=O)c2cc(NC(=O)CCC(F)(F)F)ccc2O1	0.6
COc1ccc(S(=O)(=O)Nc2ccc3c(c2)CC(=O)N([C@@H](C)CO)C[C@H](C)[C@H](CN(C)C)O3)cc1	-2.8

# (listing goes on)
Structure	Ran importin
C[C@@H]1CN([C@H](C)CO)C(=O)c2cc(NC(=O)Nc3ccc(F)cc3)ccc2O[C@H]1CN(C)S(=O)(=O)c1cn(C)cn1	-6.6
C[C@@H]1CN([C@H](C)CO)C(=O)Cc2cc(NS(=O)(=O)c3ccccc3)ccc2O[C@@H]1CN(C)Cc1ccc2c(c1)OCO2	-0.1
CC(C)NC(=O)Nc1ccc2c(c1)C(=O)N([C@H](C)CO)C[C@H](C)[C@H](CN(C)C(=O)Cc1ccccc1)OCCCC[C@H](C)O2	1.2
C[C@@H]1CN([C@@H](C)CO)C(=O)c2cccc(NC(=O)Nc3ccc(F)cc3)c2O[C@H]1CN(C)C(=O)NC1CCCCC1	0.4
COc1ccc(CN(C)C[C@H]2Oc3c(NC(=O)c4ccncc4)cccc3C(=O)N([C@H](C)CO)C[C@@H]2C)cc1	2.0
C[C@H](CO)N1C[C@H](C)[C@H](CN(C)C(=O)c2ccccc2)OCc2cn(nn2)CCCC1=O	-3.1
C[C@H]1CCCCO[C@@H](CN(C)Cc2ccc(C(=O)O)cc2)[C@@H](C)CN([C@@H](C)CO)C(=O)c2cc(NS(=O)(=O)c3ccccc3)ccc2O1	1.7
C[C@@H]1CN([C@@H](C)CO)C(=O)c2cc(NS(=O)(=O)c3ccc(Cl)cc3)ccc2O[C@@H](C)CCCCO[C@H]1CN(C)C	0.4
COc1ccc(S(=O)(=O)N(C)C[C@@H]2Oc3ccc(NC(=O)CCCN(C)C)cc3C(=O)N([C@H](C)CO)C[C@@H]2C)cc1	4.7
C[C@H]1CN([C@@H](C)CO)C(=O)c2cccc(NC(=O)C3CCOCC3)c2O[C@@H]1CN(C)C(=O)Nc1ccc(F)cc1	-1.5

# (cont.)
Structure	Ran importin
Cc1noc(C)c1NC(=O)Nc1ccc2c(c1)C(=O)N([C@@H](C)CO)C[C@@H](C)[C@@H](CN(C)C(=O)CCCN(C)C)OCCCC[C@H](C)O2	-3.5
C[C@@H]1CN([C@@H](C)CO)C(=O)Cc2cc(NS(C)(=O)=O)ccc2O[C@@H]1CN(C)C(=O)Nc1ccccc1	8.3
CC(C)NC(=O)Nc1ccc2c(c1)C(=O)N([C@H](C)CO)C[C@@H](C)[C@H](CN(C)Cc1ccc(C(=O)O)cc1)OCCCC[C@H](C)O2	1.0
C[C@H](CO)N1C[C@H](C)[C@H](CN(C)Cc2ccc(C(=O)O)cc2)Oc2ccc(NC(=O)Nc3ccccc3)cc2CC1=O	0.9
C[C@H]1CN([C@@H](C)CO)C(=O)c2cccc(NS(=O)(=O)c3cn(C)cn3)c2O[C@@H]1CN(C)CC1CC1	-0.9
C[C@@H]1CCCCO[C@@H](CN(C)S(=O)(=O)c2ccccc2)[C@H](C)CN([C@@H](C)CO)C(=O)c2cc(NS(C)(=O)=O)ccc2O1	-0.9
C[C@@H]1CN([C@H](C)CO)C(=O)CCCn2cc(nn2)CO[C@H]1CN(C)Cc1ccncc1	?
C[C@H]1CN([C@@H](C)CO)C(=O)c2cccc(NC(=O)c3cnccn3)c2O[C@@H]1CN(C)C(=O)Nc1ccccc1	-1.8
C[C@H](CO)N1C[C@H](C)[C@@H](CN(C)C(=O)Nc2ccc3c(c2)OCO3)Oc2ccc(NC(=O)NC3CCCCC3)cc2CC1=O	-1.4
C[C@H]1CN([C@@H](C)CO)C(=O)CCCn2cc(nn2)CO[C@@H]1CN(C)S(=O)(=O)c1ccccc1	?

# Gathered by group: those above containing a Cl atom (2)
Structure	Ran importin
C[C@H](CO)N1C[C@H](C)[C@H](CN(C)S(=O)(=O)c2ccc(Cl)cc2)Oc2c(NS(=O)(=O)c3cccs3)cccc2C1=O	-0.5
C[C@@H]1CN([C@@H](C)CO)C(=O)c2cc(NS(=O)(=O)c3ccc(Cl)cc3)ccc2O[C@@H](C)CCCCO[C@H]1CN(C)C	0.4

# Remaining list, next part
compound | Ran importin
C[C@@H]1CCCCO[C@@H](CN(C)C(=O)CCCN(C)C)[C@H](C)CN([C@@H](C)CO)C(=O)c2cc(NC(=O)Cc3ccccc3)ccc2O1 | -1.0
C[C@@H]1CCCCO[C@H](CN(C)S(=O)(=O)c2cccs2)[C@H](C)CN([C@H](C)CO)C(=O)c2cc(NC(=O)Cc3ccccc3)ccc2O1 | -0.5
C[C@@H]1CN([C@@H](C)CO)C(=O)c2cccc(NC(=O)Nc3ccc(C(F)(F)F)cc3)c2O[C@@H]1CN(C)C(=O)Nc1ccc(F)cc1 | -3.2
C[C@@H]1CN([C@H](C)CO)C(=O)c2cccc(NC(=O)C3CCOCC3)c2O[C@@H]1CN(C)S(=O)(=O)c1cn(C)cn1 | -1.9
CC(C)NC(=O)N(C)C[C@H]1OCc2cnnn2CCCC(=O)N([C@@H](C)CO)C[C@@H]1C | -6.8
C[C@H]1CCCCO[C@@H](CN(C)C(=O)c2ccccc2)[C@@H](C)CN([C@@H](C)CO)C(=O)c2cc(NC(=O)Nc3ccc(F)cc3)ccc2O1 | 0.9
C[C@H](CO)N1C[C@H](C)[C@H](CN(C)C(=O)Nc2ccccc2)Oc2ncc(C#Cc3ccccc3)cc2C1=O | 0.2
C[C@@H]1CCCCO[C@H](CN(C)C(=O)Cc2ccccc2)[C@H](C)CN([C@H](C)CO)C(=O)c2cc(NC(=O)Nc3ccc(F)cc3)ccc2O1 | 0.9
C[C@H](CO)N1C[C@H](C)[C@@H](CN(C)Cc2ccc(Cl)c(Cl)c2)Oc2ccc(NC(=O)C3CC3)cc2C1=O | -0.8
C[C@@H]1CN([C@H](C)CO)C(=O)c2cc(NC(=O)NC3CCCCC3)ccc2O[C@H]1CN(C)C(=O)Nc1ccccc1 | 5.0
C[C@@H]1CCCCO[C@H](CN(C)C(=O)c2ccccc2)[C@@H](C)CN([C@@H](C)CO)C(=O)c2cc(NC(=O)Nc3ccc4c(c3)OCO4)ccc2O1 | -4.1
CC(C)NC(=O)Nc1ccc2c(c1)C(=O)N([C@@H](C)CO)C[C@@H](C)[C@H](CN(C)C(=O)CCCN(C)C)OCCCC[C@H](C)O2 | -0.7
C[C@@H]1CCCCO[C@@H](CN(C)C(=O)C2CCCCC2)[C@H](C)CN([C@@H](C)CO)C(=O)c2cc(NC(=O)c3ccncc3)ccc2O1 | 1.5
C[C@@H]1CN([C@H](C)CO)C(=O)c2cccc(NS(=O)(=O)c3ccc(Cl)cc3)c2O[C@H]1CN(C)S(=O)(=O)c1cn(C)cn1 | ?
C[C@@H]1CCCCO[C@H](CN(C)C(=O)C2CCCCC2)[C@H](C)CN([C@@H](C)CO)C(=O)c2cc(N(C)C)ccc2O1 | ?

# Carrying on:
compound | Ran importin
C[C@@H]1CN([C@@H](C)CO)C(=O)c2cc(N(C)C)ccc2O[C@@H](C)CCCCO[C@H]1CN(C)C(=O)CCC(F)(F)F | -1.0
COc1ccc(CN(C)C[C@H]2Oc3ccc(NS(=O)(=O)c4ccc(Cl)cc4)cc3C(=O)N([C@@H](C)CO)C[C@@H]2C)cc1 | ?
C[C@H](CO)N1C[C@H](C)[C@H](CN(C)S(=O)(=O)c2cccs2)Oc2ccc(NC(=O)c3ccncc3)cc2CC1=O | 1.5
C[C@H]1CN([C@@H](C)CO)C(=O)c2cc(N(C)C)ccc2O[C@H]1CN(C)Cc1ccccc1 | 1.9
C[C@@H]1CN([C@H](C)CO)C(=O)Cc2cc(NC(=O)C3CC3)ccc2O[C@@H]1CN(C)C(=O)Nc1ccc(C(F)(F)F)cc1 | 2.0
Cc1noc(C)c1S(=O)(=O)Nc1ccc2c(c1)CC(=O)N([C@@H](C)CO)C[C@@H](C)[C@H](CN(C)C(=O)Nc1ccccc1)O2 | 2.7
C[C@@H]1CN([C@@H](C)CO)C(=O)c2cc(NS(C)(=O)=O)ccc2O[C@H]1CN(C)C(=O)NC1CCCCC1 | 0.1
C[C@H](CO)N1C[C@H](C)[C@@H](CN(C)Cc2ccncc2)OCCCC[C@H](C)Oc2ccc(NS(=O)(=O)c3ccccc3)cc2C1=O | 7.3
CC(C)NC(=O)N(C)C[C@H]1OCCCC[C@@H](C)Oc2ccc(NS(C)(=O)=O)cc2C(=O)N([C@H](C)CO)C[C@H]1C | -2.4
C[C@@H]1CN([C@H](C)CO)C(=O)c2cc(NS(=O)(=O)c3ccc(Cl)cc3)ccc2O[C@@H]1CN(C)C(=O)NC1CCCCC1 | -0.8
COc1ccc(S(=O)(=O)N(C)C[C@H]2Oc3c(NC(=O)c4ccc(-c5nccs5)cc4)cccc3C(=O)N([C@H](C)CO)C[C@@H]2C)cc1 | 0.3
Cc1noc(C)c1NC(=O)N(C)C[C@@H]1Oc2ccc(NS(=O)(=O)c3cn(C)cn3)cc2CC(=O)N([C@@H](C)CO)C[C@H]1C | -3.4
C[C@@H]1CN([C@H](C)CO)C(=O)c2cccc(NC(=O)Nc3cccc4ccccc34)c2O[C@@H]1CN(C)C(=O)Nc1ccc(C(F)(F)F)cc1 | -13.3
C[C@@H]1CN([C@H](C)CO)C(=O)c2cccc(NS(=O)(=O)c3cn(C)cn3)c2O[C@H]1CN(C)Cc1ccc2c(c1)OCO2 | -4.5
C[C@@H]1CN([C@@H](C)CO)C(=O)c2cccc(NS(=O)(=O)c3ccc(Cl)cc3)c2O[C@@H]1CN(C)S(=O)(=O)c1cccs1 | ?

# New compounds follow.
compound | Ran importin
CC(C)NC(=O)Nc1ccc2c(c1)C(=O)N([C@@H](C)CO)C[C@H](C)[C@@H](CN(C)Cc1ccc(C(=O)O)cc1)OCCCC[C@H](C)O2 | -5.6
C[C@H](CO)N1C[C@H](C)[C@H](CN(C)S(=O)(=O)c2cccs2)Oc2ccc(NC(=O)Cn3cnnn3)cc2C1=O | -1.0
C[C@H]1CCCCO[C@@H](CN(C)Cc2ccc(C(=O)O)cc2)[C@@H](C)CN([C@@H](C)CO)C(=O)c2cc(NC(=O)c3ccncc3)ccc2O1 | 0.6
C[C@H](CO)N1C[C@H](C)[C@H](CN(C)C(=O)c2ccccc2)OCCCC[C@H](C)Oc2ccc(NS(C)(=O)=O)cc2C1=O | 1.1
C[C@@H]1CN([C@H](C)CO)C(=O)c2cccc(NC(=O)c3cnccn3)c2O[C@H]1CN(C)C(=O)Nc1ccc(F)cc1 | ?
Cc1noc(C)c1NC(=O)N(C)C[C@H]1OCCCC[C@@H](C)Oc2ccc(NC(=O)CCC(F)(F)F)cc2C(=O)N([C@@H](C)CO)C[C@@H]1C | 1.1
C[C@@H]1CCCCO[C@H](CN(C)C(=O)Cc2ccccc2)[C@@H](C)CN([C@@H](C)CO)C(=O)c2cc(NC(=O)Nc3ccc(F)cc3)ccc2O1 | 4.9
C[C@@H]1CN([C@@H](C)CO)C(=O)c2cc(NC(=O)CCCN(C)C)ccc2O[C@H]1CN(C)Cc1ccc2c(c1)OCO2 | 9.0
Cc1cc(C(=O)Nc2cccc3c2O[C@@H](CN(C)C(=O)Nc2ccccc2)[C@@H](C)CN([C@H](C)CO)C3=O)n(C)n1 | 5.3
CC(C)NC(=O)N(C)C[C@@H]1OCCCC[C@H](C)Oc2ccc(NC(=O)Nc3ccc4c(c3)OCO4)cc2C(=O)N([C@@H](C)CO)C[C@H]1C | ?
COc1ccc(NC(=O)N(C)C[C@H]2Oc3c(NS(=O)(=O)c4cccs4)cccc3C(=O)N([C@H](C)CO)C[C@H]2C)cc1 | 8.3
C[C@H](CO)N1C[C@H](C)[C@@H](CN(C)CC2CC2)Oc2ccc(NS(=O)(=O)c3cn(C)cn3)cc2CC1=O | -3.7

# 5 entries picked at random from the list so far:
compound | Ran importin
C[C@H](CO)N1C[C@H](C)[C@@H](CN(C)CC2CC2)Oc2ccc(NS(=O)(=O)c3cn(C)cn3)cc2CC1=O | -3.7
C[C@@H]1CCCCO[C@H](CN(C)C(=O)Cc2ccccc2)[C@@H](C)CN([C@@H](C)CO)C(=O)c2cc(NC(=O)Nc3ccc(F)cc3)ccc2O1 | 4.9
C[C@H](CO)N1C[C@H](C)[C@H](CN(C)C(=O)c2ccccc2)OCCCC[C@H](C)Oc2ccc(NS(C)(=O)=O)cc2C1=O | 1.1
C[C@H](CO)N1C[C@H](C)[C@H](CN(C)S(=O)(=O)c2cccs2)Oc2ccc(NC(=O)Cn3cnnn3)cc2C1=O | -1.0
CC(C)NC(=O)N(C)C[C@@H]1OCCCC[C@H](C)Oc2ccc(NC(=O)Nc3ccc4c(c3)OCO4)cc2C(=O)N([C@@H](C)CO)C[C@H]1C | ?
